Assay outcomes: PubChem BioAssay, National Center for Advancing Translational Sciences (NCATS)
Six1-Eya2 blk: Six1/Eya2 interaction inhibition | Q15475+O00167 | AlphaScreen GST-Six1/His-Eya2 binding, biochemical; active compounds read low; control for the full effect not named in the record | activity change, % (no concentration beside the values) | hit rate 0.56% among 360,000; in the data active = activity change below about -65%; inconclusive = about -30% to -65%; inactive = above about -30%; further: on the % scale 0 is the no-effect control and ±100 the full control effect
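Homogeneous AlphaScreen proximity assay pairing GST-Six1 with His-tagged Eya2 (added as 5X mix: 250 nM and 500 nM) in 50 mM Tris pH 8.0, 300 mM NaCl, 1 mM TCEP. Glutathione donor and nickel acceptor beads; 1 h, 37 °C, dark.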
PINK1 modulator: PINK1 expression modulation | PINK1 immunofluorescence, high-content cytometry, 24 h | Potency, µM (highest dose often 76.6 µM), for inactives: at the highest dose activation (PINK1 increase), usual class: activators | hit rate 0.2% among 410,000; active = well fitted activation curve with a large enough effect; inconclusive = small, poorly fitted or top-dose-only effect; inactive = flat fitted curve, though single readings scatter; cell line not stated here;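 further: potency means the concentration at half of the fitted maximal effect; % of control where 0% means no effect; nearly all actives have a fitted effect of over 65% in size; a mitochondrial uncoupler was the plate control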
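Readout is PINK1 immunofluorescence, quantified alongside mitochondrial, cell and nuclear markers by laser-scanning microplate cytometry. Cells from a stable line were exposed to compound titrations (5 concentrations) for 24 hours, with CCCP controls.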
D2 ag: human D2 receptor agonism in beta-arrestin assay | P14416 | DiscoveRx PathHunter D2 beta-arrestin, luminescence, 90 min; 100% = 57 uM dopamine signal | activation, % (concentration not given with the values) | hit rate 0.084% among 360,000; in the data active = activation above about 40%; inconclusive = about 15% to 40%; inactive = below about 15%; further: compound concentration not given in the record; the text of the record calls up to 30% inactive
Target sequence (P14416 whole entry, looked up): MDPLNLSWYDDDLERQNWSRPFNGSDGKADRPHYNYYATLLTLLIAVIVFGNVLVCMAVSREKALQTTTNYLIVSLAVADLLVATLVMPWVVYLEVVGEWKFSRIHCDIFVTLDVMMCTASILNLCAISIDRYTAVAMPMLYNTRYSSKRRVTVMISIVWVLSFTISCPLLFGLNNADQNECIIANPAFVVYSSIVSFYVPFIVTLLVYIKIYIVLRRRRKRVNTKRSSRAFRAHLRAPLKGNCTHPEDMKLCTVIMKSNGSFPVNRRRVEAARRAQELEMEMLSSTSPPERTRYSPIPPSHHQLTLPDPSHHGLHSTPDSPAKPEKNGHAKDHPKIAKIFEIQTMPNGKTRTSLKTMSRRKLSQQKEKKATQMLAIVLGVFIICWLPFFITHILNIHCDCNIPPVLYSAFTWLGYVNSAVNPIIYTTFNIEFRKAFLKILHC
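DiscoveRx PathHunter D2 beta-arrestin cells (2,100/well) attached overnight, then compound-stimulated 90 min at 37 C in HBSS/10 mM HEPES/0.1% Tween-20 buffer; beta-galactosidase complementation read by luminescence after 1 h at ambient temperature. Dopamine 57 uM final (EC100) as control.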
TRPML1 agonist: activates the human TRPML1 channel; AID 624414; Q9GZU1; activation, % (test concentration not listed); TRPML1-expressing cells, Ca2+ dye fluorescence, FDSS; host cell line not named in the record; reference of the full effect not given here; hit rate 0.12% among 410,000; in the data active = activation above about 50%; inconclusive = about 30% to 50%; inactive = below about 30%; further: 0% is about no effect; the text of the record puts the active cut at 80%
Target sequence (Q9GZU1 whole entry, looked up): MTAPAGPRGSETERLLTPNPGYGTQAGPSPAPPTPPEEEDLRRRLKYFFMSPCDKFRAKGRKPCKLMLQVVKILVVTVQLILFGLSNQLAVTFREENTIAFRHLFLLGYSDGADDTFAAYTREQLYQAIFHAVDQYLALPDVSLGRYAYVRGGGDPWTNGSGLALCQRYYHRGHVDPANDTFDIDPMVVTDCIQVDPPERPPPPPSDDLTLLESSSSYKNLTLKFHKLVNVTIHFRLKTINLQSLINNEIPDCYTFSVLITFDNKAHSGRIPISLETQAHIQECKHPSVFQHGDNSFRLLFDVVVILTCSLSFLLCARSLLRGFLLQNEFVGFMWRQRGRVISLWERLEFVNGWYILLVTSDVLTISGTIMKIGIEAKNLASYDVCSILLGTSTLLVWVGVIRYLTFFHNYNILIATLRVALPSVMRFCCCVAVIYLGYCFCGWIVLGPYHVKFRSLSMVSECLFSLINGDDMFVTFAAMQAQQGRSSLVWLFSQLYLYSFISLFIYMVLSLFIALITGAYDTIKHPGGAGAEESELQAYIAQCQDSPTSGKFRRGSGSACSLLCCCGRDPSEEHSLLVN
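Tetracycline-induced TRPML1-DL cells are seeded and incubated overnight before loading with a no-wash Ca2+ dye and quencher. Agonist activity is taken from the 110 s fluorescence read following compound pin-transfer on an FDSS, before EC80 54-4 challenge.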
CtBP-E1A inh: CtBP/E1A binding inhibition. hit rate 0.49% among 340,000. activity change, % (no concentration beside the values). AlphaScreen GST-E1A/His-CtBP binding, 1536-well; active compounds read low; control for the full effect not named in the record. AID 651724; in the data active means activity change below about -65%; inconclusive means about -30% to -65%; inactive means above about -30%; further: on the % scale 0 is the no-effect control and ±100 the full control effect
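Steps: dispense buffer (Tris pH 8.0, NaCl 300 mM, TCEP 1 mM, BSA, Tween 20); add 5X protein mix (GST-E1A, His-CtBP, 125 nM each); pin 23 nL compound; 2 h at 37 °C, dark; add 5X beads (50 ug/mL); 1 h; read.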
TRPML1 blocker: human mucolipin-1 channel inhibition; Q9GZU1; TRPML1-inducible cells, Ca2+ dye fluorescence, FDSS; active compounds read low; inhibition of EC80 agonist-evoked calcium signal; activity change, negative = inhibition, % (concentration not given with the values); hit rate 0.02% among 390,000; AID 624415; in the data active means activity change below about -50%; inconclusive means about -30% to -50%; inactive means above about -30%;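 further: stimulus is agonist 54-4 at its EC80 concentration; on the % scale 0 is the no-effect control and ±100 the full control effect; the text of the record puts the active cut at -80%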
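Calcium fluorescence in TRPML1-DL cells induced overnight with Tet: a 110 s read after compound pin addition, then a 110 s antagonist read after challenge with 54-4 at 4 uM final (EC80).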
* = called active by the depositor; ? = inconclusive; nt = not tested or not shown; & = joins results of further samples; [ ] = another dose, or the depositor's remark.

The line under a structure holds: Six1-Eya2 blk, PINK1 modulator, D2 ag, TRPML1 agonist, CtBP-E1A inh, TRPML1 blocker
- CCCC(C)NC(=O)c1cc(Cl)ccc1OC (stereo not drawn)
    -4, -0.8%, -0.9, -0.4, -1, -18
- COC(=O)C1CCN(C(=O)COC(=O)c2cc([N+](=O)[O-])ccc2N2CCOCC2)CC1
    4, 0.4%, 2.2, 1.0, -3, 19
- O=C(NCc1ccc(Cl)c(Cl)c1)c1cc(C2CCCCN2C(=O)c2ccccn2)on1 (stereo not drawn)
    4, 2.4%, 9.3, -0.7, -4, nt
- Cc1ccc(CN2CCN(Cc3cn[nH]c3-c3ccccc3)CC2CCO)o1 (stereo not drawn)
    2, 0.1%, -1.6, 0.2, 0, -12
- COc1cc(NC(=O)C(F)(F)F)cc(OC)c1
    7, 4.3%, -2.9, -0.5, 4, -21
- Fc1ccc(N2CCN(Cc3ccccn3)CC2)cc1
    4, -0.3%, -1.4, 0.2, -5, -1
- COc1ccccc1Cc1c(-c2ccc(Cl)cc2)nc2ccc(Br)cn12
    -4, 22%, -13, -0.4, 1, nt
- CC(=O)N1CCN(c2ccc(NS(=O)(=O)c3ccc(C)cc3)cc2)CC1
    3, 1.4%, 7.7, -0.6, 4, 2
- COc1ccccc1Cn1c(C)nnc1-c1cnn(C)c1N
    5, 0.9%, -2.8, -0.1, -10, -8
- CCN(CC)C1=N/C(=C\c2ccc(OC)cc2)C(=O)N1c1ccccc1
    34, 2.5%, 1.9, -0.7, 16, 23

An excerpt from above in order of heavy-atom count, low to high:
The line under a structure holds: Six1-Eya2 blk, PINK1 modulator, D2 ag, TRPML1 agonist, CtBP-E1A inh, TRPML1 blocker
- COc1cc(NC(=O)C(F)(F)F)cc(OC)c1
    7, 4.3%, -2.9, -0.5, 4, -21
- Cc1ccc(CN2CCN(Cc3cn[nH]c3-c3ccccc3)CC2CCO)o1 (stereo not drawn)
    2, 0.1%, -1.6, 0.2, 0, -12
- O=C(NCc1ccc(Cl)c(Cl)c1)c1cc(C2CCCCN2C(=O)c2ccccn2)on1 (stereo not drawn)
    4, 2.4%, 9.3, -0.7, -4, nt

Following part
The line under a structure holds: Six1-Eya2 blk, PINK1 modulator, D2 ag, TRPML1 agonist, CtBP-E1A inh, TRPML1 blocker
- CC1(C)OC(=O)N(c2ccccn2)C1(C)O (stereo not drawn)
    -26, 4.9%, -4.6, -0.3, 8, 0
- O=C(Nc1nc2ccccc2s1)C1CC(=O)N(c2ccc(Br)cc2)C1 (stereo not drawn)
    -2, -1.9%, -3.9, -0.3, 0, 12
- COc1ccc(NS(=O)(=O)c2cccc(C(=O)NCC(c3ccccc3)N(C)C)c2)cc1 (stereo not drawn)
    -2, -5.0%, -5.1, 0.5, -3, 3
- COc1ccc(NC(=S)N2CCN(C(=O)c3ccco3)CC2)c(OC)c1
    9, -0.5%, 1.5, -0.3, -8, 49
- CC1(C)Cc2c(cnn2-c2ccccc2)C(=O)/C1=N\NC(=O)c1ccccc1O
    -21, 6.9%, -1.9, 0.3, -11, 20
- CC1=NOC(=O)/C1=C\c1ccc(-c2ccc(Cl)cc2Cl)o1
    -17, -1.9%, -2.2, -0.1, 8, 23
- CCOc1ccc(CCNC(=O)Nc2cccc(OC)c2)cc1OCC
    11, 2.2%, -1.0, nt, 3, nt
- CCCc1ccc2oc(C(=O)NCc3nnc(C)o3)c(C)c2c1
    10, 2.8%, -0.5, 1.7, 10, 10
- Cc1ccc(CNC(=O)c2ccc(N3Cc4ccccc4Oc4ncccc43)s2)cc1
    nt, 0.2%, nt, 1.1, nt, -13
- CSc1ccccc1NC(=O)CN(c1cc(C)cc(C)c1)S(C)(=O)=O
    -6, -1.4%, -2.5, -0.9, -3, 1
- C/C(Cl)=C\Cn1c(O)c(N=O)c2ccccc21
    -1, 3.8%, 3.9, 6.8, 7, 23
- O=C(Nc1ccc(Cl)cc1)N1CCCN(Cc2ccc(F)cc2)C1
    2, 11%[38.3 µM], -2.9, 0.8, 4, 20
- CC(C(=O)Nc1ccc2nccnc2c1)N1C(=O)C2C3C=CC(C3)C2C1=O (stereo not drawn)
    -9, 3.4%, -1.8, -0.5, -6, -4
- COCCn1c(=S)[nH]c2cc(C(=O)N3CCc4ccccc43)ccc2c1=O
    -7, ?, 0.9, 2.6, 3, 26
- CCn1c(SCC(=O)Nc2nc(C)c(C)s2)nnc1-c1cccnc1
    -2, 1.5%[38.3 µM], -3.8, 0.3, -1, 33
- O=C(CCl)Nc1cc(-c2ccccc2)nn1-c1ccccc1
    29, -7.3%[38.3 µM], 1.0, 0.9, 40, -2
- CC(=O)c1cccc(S(=O)(=O)N2CCN(c3ccccc3F)CC2)c1
    -1, 0.7%&0.6%, -5.4, 0.3&3.0, nt, -15&-7
- COc1cc2ccccc2cc1C(=O)Nc1ccc(Br)cn1
    1, 4.7%, -6.6, -0.1, 0, -6
- O=C1CCCc2ccccc2N1Cc1ccc(Cl)cc1
    10, 6.6%, -1.3, 1.1, 31, 26
- O=C(COC(=O)c1ccc(S(=O)(=O)N2CCOCC2)cc1)NC1CCCCCC1
    1, 0.4%[38.3 µM], -1.0, -0.2, 8, 4
- Cc1ccc(-c2cc3nc(NCCOc4ccccc4Cl)n(C)c(=O)c3s2)cc1
    10, 3.7%, -4.6, -0.2, 6, 11
- CC(C)c1nc2cc(C(=O)N3CCNC(=O)C3c3cccc(F)c3)ccc2o1 (stereo not drawn)
    -5, 0.5%, 1.2, -0.8, nt, -20
- O=C(NCCCN1CCCCC1)c1ccc(CS(=O)c2ccc(F)cc2)o1 (stereo not drawn)
    3, 0.8%, -2.0, -0.2, 0, -8
- O=C(COc1ccccc1)NNC(=O)c1cccs1
    1, -1.8%, 3.1, -0.8, nt, 3
- CS(=O)(=O)N1CCC(C(=O)Nc2ccccc2)CC1
    3, nt, 1.2, -0.1, 8, -6
- CCOc1ccc(C(=O)Nc2ccc(N3CCCC3)cc2)cc1
    -16, 0.3%, -1.6, -0.4, -14, 10
- CC1CCCCN1C(=O)NC12CC3CC(CC(C3)C1)C2 (stereo not drawn)
    5, -0.5%[38.3 µM], 3.0, 0.6, 14, 22
- CCN1CCc2c(C#N)c(N3CCOCC3)nc(NCc3ccccc3)c2C1
    4, 0.8%, -6.9, 0.7, -2, -2
- CC(C)(C)c1ccc(S(=O)(=O)NCCc2ccncc2)cc1
    2, -2.8%, 1.4, 3.3, 1, -9
- CCc1ccc(C(=O)CSc2n[nH]c(C)n2)cc1
    -1, 0.0%, -2.6, -0.7, 5, -1
- Cc1ccc(S(=O)(=O)NCC(=O)OCC(=O)NCc2ccco2)cc1
    4, 1.0%, -3.8, 1.0, 4, -18
- COc1ccc(Nc2c3ccccc3nc3ccccc23)cc1
    -12, -1.5%, -1.5, 0.6, ?, 9
- CCCCCCCOc1ccc(C2(C)NC(=O)NC2=O)cc1 (stereo not drawn)
    0, -0.6%, 5.3, 0.0, 7, 1
- C/C(=N/NC(=O)c1ccncc1)c1c[nH]c2ccccc12
    -4, -1.7%, 0.4, 1.0, 2, -8
- S=C(NCc1ccncc1)NC1CCCCC1
    17, 2.2%, 6.0, 0.6, nt, -7
- COc1cccc(CNC(=O)C2CCN(S(=O)(=O)c3ccc4c(c3)CC(C)N4C(=O)C3CC3)CC2)c1 (stereo not drawn)
    -19, -0.1%, -0.1, 1.5, -29, 6
- Cc1ccc(NC(=O)CSc2nc(=O)n(Cc3ccncc3)c3c2CCC3)cc1Cl
    nt, 0.4%, nt, -0.7, nt, -20
- O=C(c1ccccc1Oc1ccccc1)N1CCN(c2ccccc2F)CC1
    1, 2.4%, -2.3, 1.4, 3, 7
- Cc1c(Br)c([N+](=O)[O-])nn1CC(=O)N1CCCc2ccccc21
    3, -2.5%, -3.6, -0.2, 10, 2
- Cc1ccc(C23CC4CC(CC(NC(=O)NCCN(C)C)(C4)C2)C3)cc1
    0, -2.2%, -3.0, 3.7, -3, 5
- CC(=O)Oc1ccc(C(=O)Nc2ccccc2C(=O)Nc2cccc(C(=O)O)c2)cc1
    -14, 4.7%, 3.5, -0.6, 0, -4
- COc1ccc(N2C3=[N+](CCCC3)CC2(C)O)cc1 (stereo not drawn)
    2, -2.6%[38.3 µM], 0.6, 0.7, 4, -11
- CC1CCCCN1C(=O)CCn1c(=S)oc2ccccc21 (stereo not drawn)
    -7, -0.4%, 0.0, -0.8, 11, 20
- O=[N+]([O-])c1cc2c(c(CSc3ncccn3)c1)OCOC2
    -23, 2.9%, -9.6, -0.5, 2, 9
- CC1CC2(C)Oc3ccccc3CC2C(C)C1CNCCCN(C)C (stereo not drawn)
    -10, -1.5%, -0.5, 0.6, -3, -3
- CCOC(=O)Cc1csc(NC(=O)CSc2nccn2C)n1
    1, 0.9%, -1.8, 0.6, -9, 6
- CCOc1ccccc1C=NN=Cc1ccccc1O
    17, 0.3%, -2.1, 2.7, -2, -25
- CSc1nn(Cc2ccc(Cl)cc2)c(N(C(C)=O)C(C)=O)c1S(=O)(=O)c1ccccc1
    nt, ?, nt, 0.6, nt, 35
- CCN(c1ccccc1)S(=O)(=O)c1cccc(C(=O)NCc2ccncc2)c1
    -6, -1.2%, -1.0, 0.4, 7, 6
- COc1ccc(CCNC(=O)/C=C/C(=O)O)cc1
    3, 0.5%, -3.0, -0.5, 4, -11

Sorted by value in TRPML1 blocker (smallest number first): 4 from the list above.
| mol | Six1-Eya2 blk | PINK1 modulator | D2 ag | CtBP-E1A inh | TRPML1 blocker |
| --- | --- | --- | --- | --- | --- |
| CCOc1ccccc1C=NN=Cc1ccccc1O | 17 | 0.3% | -2.1 | -2 | -25 |
| CC1CC2(C)Oc3ccccc3CC2C(C)C1CNCCCN(C)C (stereo not drawn) | -10 | -1.5% | -0.5 | -3 | -3 |
| CCN(c1ccccc1)S(=O)(=O)c1cccc(C(=O)NCc2ccncc2)c1 | -6 | -1.2% | -1.0 | 7 | 6 |
| CSc1nn(Cc2ccc(Cl)cc2)c(N(C(C)=O)C(C)=O)c1S(=O)(=O)c1ccccc1 | nt | ? | nt | nt | 35 |

The results go on.
The line under a structure holds: Six1-Eya2 blk, PINK1 modulator, D2 ag, TRPML1 agonist, CtBP-E1A inh, TRPML1 blocker
- O=C(CCc1nc2ccccc2c(=O)[nH]1)N1CCN(S(=O)(=O)c2ccc(F)cc2)CC1
    5, 0.4%, 7.8, 1.5, -4, -2
- Cc1cccc(C)c1OCc1cc(C(=O)N2CCC(C3CCCCC3)C2)no1 (stereo not drawn)
    12, 13%, -4.0, 0.5, 2, -6
- COc1ccc(C=C2CS(=O)(=O)CC(=Cc3ccc(OC)cc3)C2=O)cc1
    -1, 3.4%, -7.6, 0.5, -1, -2
- Cc1ccc(NC(=O)COC(=O)c2cc(Cl)ccc2Cl)c(Br)c1
    11, ?, -0.1, 4.4, 0, -8
